Marburg entry inh – qHTS for inhibitors of binding or entry into cells for Marburg Virus; Marburg virus pseudotyped entry inhibition, cell reporter; control for the full effect not named in the record; about a third of the inactives were read at about 46 µM; Potency, µM (titrated, usually from 37.8 µM), without a hit: at the top dose activity change, negative = inhibition, most hits filed as inhibitors; 300,000 compounds, 1.8% hits; AID 540276, 2011; active = well fitted inhibition curve with a large enough effect; inconclusive = small, poorly fitted or top-dose-only effect, or effect the other way; inactive = flat fitted curve, though single readings scatter; tested in HEK293 cells; about a fifth of its hits are not listed in these tables; further: on the % scale 0 is the no-effect control and ±100 the full control effect; luciferase read-out
LASV entry inh – qHTS for Inhibitors of binding or entry into cells for Lassa Virus; Lassa virus pseudotype entry inhibition, cell reporter; control for the full effect not named in the record; Potency, µM (highest dose often 37.9 µM), for inactives: at the highest dose activity change, negative = inhibition, most hits filed as inhibitors; 300,000 compounds, 1.2% hits; active means well fitted inhibition curve with a large enough effect; inconclusive means small, poorly fitted or top-dose-only effect, or effect the other way; inactive means flat fitted curve, though single readings scatter; tested in HEK293 cells; further: on the % scale 0 is the no-effect control and ±100 the full control effect; nearly all actives have a fitted effect of over 50% in size; luciferase read-out
Cruzain inh noDet – qHTS Assay for Promiscuous and Specific Inhibitors of Cruzain (without detergent); Cruzipain (Trypanosoma cruzi), P25779; purified cruzain, Z-FR-AMC fluorescence, no detergent; Potency, µM, for the others: max response, negative = inhibition, usual class: inhibitors; 200,000 compounds, 2.3% hits; AID 1476, 2009;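 further: plate controls were enzyme without inhibitor for no effect and buffer without enzyme for full effect; nearly all actives have a fitted effect of over 40% in size; top concentration of the series not given in the record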
Target sequence (P25779 123-467 limits assumed): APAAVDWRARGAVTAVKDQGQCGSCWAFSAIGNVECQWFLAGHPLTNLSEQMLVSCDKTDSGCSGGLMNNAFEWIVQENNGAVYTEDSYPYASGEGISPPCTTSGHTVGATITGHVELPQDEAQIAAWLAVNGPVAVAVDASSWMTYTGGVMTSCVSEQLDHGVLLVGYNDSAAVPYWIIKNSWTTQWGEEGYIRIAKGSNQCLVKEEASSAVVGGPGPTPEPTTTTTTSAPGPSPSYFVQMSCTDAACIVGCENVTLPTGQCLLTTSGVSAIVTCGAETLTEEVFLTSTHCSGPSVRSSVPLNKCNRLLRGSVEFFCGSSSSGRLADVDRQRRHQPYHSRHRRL
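Purified cruzain at 1.5 nM, pre-incubated 15 min with compound at room temperature in 100 mM sodium acetate pH 5.5, 5 mM DTT, 0.00005% Triton X-100. Reaction started with 2 uM Z-FR-AMC; AMC fluorescence increase over 60 s gives rate.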
RE007 growth inh – qHTS Assay for Inhibitors of the HIV-1 protein Vpr; S. pombe RE007 Vpr strain, BacTiter-Glo ATP luminescence, 24 h; control for the full effect not named in the record; Potency, µM (highest dose often 92.2 µM), for the others: at the highest dose activity change, negative = less growth; 360,000 compounds, 0.21% hits; active = well fitted falling curve with a large enough effect; inconclusive = small, poorly fitted or top-dose-only effect; inactive = no such curve, though single readings can be large or run the other way;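 further: on the % scale 0 is the no-effect control and ±100 the full control effect; nearly all actives have a fitted effect of over 50% in size; the assay follows cell death caused by Vpr and the record does not say whether a fall means rescue or toxicity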
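Fission yeast RE007 carrying one integrated HIV-1 vpr copy, seeded at OD 0.01 in PMG+AL medium with 23 nL pinned compound. Grown 24 h at 30 degrees; viability read by BacTiter-Glo luminescence after 5 min.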
Cruzain inh Det – qHTS Assay for Promiscuous and Specific Inhibitors of Cruzain (with detergent). 200,000 compounds, 0.43% hits. purified cruzain, Z-FR-AMC fluorescence, 0.01% Triton. Potency, µM, without a hit: max response, negative = inhibition, hits mostly inhibitors. AID 1478, 2009. Cruzipain (Trypanosoma cruzi), P25779;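 further: plate controls were neutral wells for no effect and buffer without enzyme for full effect; nearly all actives have a fitted effect of over 40% in size; top concentration of the series not given in the record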
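Cysteine protease activity tested under reducing, mildly acidic conditions (100 mM sodium acetate pH 5.5, 5 mM DTT) plus 0.01% Triton X-100. Cruzain 1.5 nM; substrate Z-FR-AMC 2 uM; 15 min compound preincubation at room temperature.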
NS1 function inh – qHTS Assay for Inhibitors of Influenza NS1 Protein Function; 270,000 compounds, 0.4% hits; S. cerevisiae slowed by influenza A NS1, growth recovery by OD600; Potency, µM (highest dose often 46.1 µM), inactives show at the top dose activity, positive = more growth; active means well fitted rising curve with a large enough effect; inconclusive means small, poorly fitted or top-dose-only effect; inactive means no such curve, though single readings can be large or run the other way; further: nearly all actives have a fitted effect of over 50% in size
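Growth recovery, yeast-based: influenza A NS1 expressed in S. cerevisiae causes slow growth, and suppressors are detected by OD600. The parent strain without NS1 is used as positive control.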
SARS PLpro yeast – qHTS of Yeast-based Assay for SARS-CoV PLP; 330,000 compounds, 0.19% hits; S. cerevisiae expressing SARS-CoV PLpro, growth rescue; control for the full effect not named in the record; Potency, µM (top dose mostly 32.9 µM), without a hit: top-dose activity, positive = growth rescue; active means well fitted rising curve with a large enough effect; inconclusive means small, poorly fitted or top-dose-only effect; inactive means no such curve, though single readings can be large or run the other way; further: 0% is about no effect; nearly all actives have a fitted effect of over 55% in size; growth read by luminescence after 48 h
2A StopGo – High Throughput Screening for Foot and Mouth Disease Virus Antivirals; human cells with a luciferase reporter of 2A StopGo recoding; control for the full effect not named in the record; Potency, µM (series often up to 57.9 µM), for the others: at the highest dose signal change, negative = less light; 410,000 compounds, 1.2% hits; AID 1159524, 2015; active = well fitted falling curve with a large enough effect; inconclusive = small, poorly fitted or top-dose-only effect; inactive = no such curve, though single readings can be large or run the other way; tested in HEK293T cells; further: on the % scale 0 is the no-effect control and ±100 the full control effect; nearly all actives have a fitted effect of over 45% in size; luciferase light after 4 h
* marks the source's active call; other numbers are inactive results; ? = inconclusive; . = not tested or not shown; & = joins results of further samples; [ ] = remark or other dose. Unless noted, the call rests on the fitted dose curve; in most records, active means well fitted curve in the direction sought with a large enough effect; inconclusive means small, poorly fitted or top-dose-only effect, or another doubt; inactive means no such curve, though single readings can be large; an effect the other way counts as inactive or inconclusive. Potency means the concentration at half of the fitted maximal effect.

SMILES	Marburg entry inh	LASV entry inh	Cruzain inh noDet	RE007 growth inh	Cruzain inh Det	NS1 function inh	SARS PLpro yeast	2A StopGo
COc1cc(-c2cccs2)cc(=O)c2c(C)oc(C)c12	-26%	-17%	20µM*	-3%	-5.1%	-13%	9%	.
NS(=O)(=O)c1ccccc1	-3%	18%	.	-26%	.	2%	0%	-2%
CSc1nc(C)c2cc(C)oc2n1	-17%	7%	-8%	-17%	3.1%	-15%	3%	1%
Cc1ccccc1C(=O)Nc1nnc(SCC(=O)NCc2ccco2)s1	.	.	.	-1%	.	13%	1%	17%
CN(C)C(=S)Nc1ccc(S(=O)(=O)N2CCCCC2)cc1	?	8%	.	7%	.	-6%	1%	11%
O=c1[nH]c(CN2CCN(c3ccccc3)CC2)nc2ccccc12	?	9%	-10%	11%	0.8%	-2%	17%	-3%
CCCC[C@@H]1CNC(=S)N1CC1CCCCC1	.	.	.	10%	.	1%	-1%	43%[activator]
COC(=O)CSc1nc(-c2ccc(C)cc2)c2c(c1C#N)CCCC2	-10%	-11%	-7%	-13%	-5.8%	5%	-12%	-26%
COc1ccc(Oc2nc3c(c(=O)n(C)c(=O)n3C)n2Cc2ccc(Cl)cc2Cl)cc1	.	-11%[46.1 µM]	-7%	.	1.1%	.	.	-30%
CCOC(=O)c1ccc2[nH]c(CSc3nnc(-c4cccc(F)c4)n3C)cc(=O)c2c1	.	-1%[46.1 µM]	-14%	.	4.2%	.	.	1%
Cc1cccc(N2CCN(C(=O)c3ccc4nccnc4c3)CC2C)c1 (stereo unspecified)	0%[46.1 µM]	-2%[46.1 µM]	.	0%	.	.	-4%	1%
c1sc2[n+](c1C13CC4CC(CC(C4)C1)C3)CCS2	?	4%	-6%	-28%	-1.2%	3%	-11%	?
CCCCC1=CC2=CC(=O)C(C)(OC(=O)CC)C(=O)C2=CN1CCCOC(C)C (stereo unspecified)	.	.	.	-13%	.	8%	-3%	-13%
CCc1cccc(NC(=O)COc2ccccc2)c1	2%[46.1 µM]	-9%	7%	5%	-2.0%	-58%	0%	66%[activator]
COc1cccc(C(=O)CSc2nnnn2C2CCCCC2)c1	23%	?	-2%	-2%	-8.2%	-34%	-55%	37%[activator]
C/C(=N/OCC(=O)Nc1ccccc1)c1cccs1	25%[46.1 µM]	-16%	4%	-1%	0.9%	-51%	7%	7%
COc1ccc2c(Sc3ccccc3)c(C(=O)NCC(C)c3ccccc3)[nH]c2c1 (stereo unspecified)	1%[46.1 µM]	11%[46.1 µM]	?	.	-6.1%	.	.	51%[activator]
Cc1ccc(SCC(=O)Nc2ccc(N3CCN(C)CC3)c(F)c2)c(C)c1	.	.	.	-3%	.	9%	0%	44%[activator]
COc1cc2c(cc1OC)C(C)N(C(=O)CCc1c[nH]c3ccccc13)CC2 (stereo unspecified)	-69%[46.1 µM]	?	.	0%	.	0%	2%	-1%
COc1cc(C2C(C#N)=C(N)OC3=C2C(=O)CC(C)(C)C3)cc([N+](=O)[O-])c1O (stereo unspecified)	.	.	.	-14%	.	3%	1%	-13%
CCOc1nc(NC(=O)NC(=O)c2ccccc2)nc(-c2ccccc2)n1	0%	52%	?	-4%	4.9%	15%	3%	-13%
CC(NC(=O)Cc1ccc(F)cc1)C(c1cccs1)N1CCN(C)CC1 (stereo unspecified)	-1%	-1%	10%	12%	-0.7%	5%	2%	.
Cc1cccc(N=C2NN=C(c3c(C)[nH]c4ccccc34)CS2)c1	?	?	?	-10%	-3.7%	25%	9%	?
CC(=NCc1ccco1)c1c(C)[nH]n(-c2nc3ccccc3s2)c1=O	?	?	3%	?	3.6%	5%	1%	?
CC(=O)c1cccc(NC(=O)CSc2nc(=O)n(Cc3cccnc3)c3c2CCC3)c1	.	8%[46.1 µM]	-5%	.	-1.8%	.	.	-3%
SMILES	Marburg entry inh	LASV entry inh	Cruzain inh noDet	RE007 growth inh	Cruzain inh Det	NS1 function inh	SARS PLpro yeast	2A StopGo
O=c1[nH]c(COc2ccc(Cl)cc2Br)nc2ccccc12	?	?	.	-9%	.	-3%	-15%	-14%
O=C(COc1ccc2c(-c3ccccc3)cc(=O)oc2c1)Nc1ccc(CCO)cc1	.	.	.	-5%	.	2%	13%	?
CCOc1ccccc1NC(=O)CCSc1nc2n[nH]c(C)c2c(=N)n1-c1ccccc1Cl	?	-18%	-13%	-7%	0.2%	0%	10%	-19%
N/C(=C/C(=O)c1ccccc1O)C(F)(F)F	-9%	14%	15%	-4%	-6.6%	3%	1%	-19%
Cc1ccc(NC(=O)Cn2nc(C)c([N+](=O)[O-])c2C)cc1C	-7%[46.1 µM]	-5%[46.1 µM]	.	-15%	.	1%	0%	-10%
COc1ccc(-c2ccoc2)cc1[C@H]1[C@H]2C=CC[C@@H](C)[C@@H]2C(=O)N1Cc1ccccc1	.	.	.	33%	.	-15%	-15%	0%
O=C(O)CSc1nnc(SCc2cccc3ccccc23)s1	-2%	-15%	0%	13%	-1.3%	0%	17%	0%
CCOC(=O)N1CCC(N2C(=O)c3ccc(C(=O)NCCOC)cc3C2=O)CC1	.	.	.	12%	.	4%	0%	-10%
CCn1ccnc1CN(C)Cc1nc(CCC(C)C)no1	?	11%[46.1 µM]	.	-13%	.	0%	-1%	18%
COC(=O)c1c(NC(=O)CN(c2ccccc2)S(C)(=O)=O)sc2c1CCCC2	12%	9%	?	?	-5.9%	23%	-14%	0%
Cc1c(Cl)cccc1NC(=O)CCCN1C(=O)c2cccnc2C1=O	16%[46.1 µM]	21%	.	2%	.	2%	1%	-12%
N#C/C(=N\Nc1cccc(F)c1)C(=O)C1CC1	.	.	.	-18%	.	-7%	-1%	-16%
O=S(=O)(NCCc1nnc2ccc(SCc3cccnc3)nn12)c1ccccc1	10%	7%	.	7%	.	.	-1%	12%
CC(=O)Nc1c(-c2ccccc2)c2cc(Br)ccc2[nH]c1=O	.	.	.	6%	.	6%	3%	-13%
CCSc1nnc(CCNC(=O)OC(C)(C)C)o1	12%	10%	-5%	-1%	0.5%	-2%	-10%	-22%
COc1ccc(S(=O)(=O)c2cnc3ccccc3n2)cc1	?	-8%[46.1 µM]	.	8%	.	.	1%	-11%
Cc1cc(-c2n[nH]c(=S)o2)c(C)n1-c1ccccc1	-25%	-25%	10%	-19%	-1.3%	-190%	-28%	9%
CC1=C(C(N)=O)C(c2ccc(C)o2)C(C(N)=O)=C(C)N1	-2%	2%	-5%	36%	6.7%	-8%	-2%	-26%
COc1ccc(COc2cc(-c3cccc(OC)c3)nc3ccc(NC(=O)c4ccc(N(C)C)cc4)cc23)cc1	?	?	6.3µM*	-6%	-2.5%&-5.0%	10µM*	6%	-22%
CCN(CC)C(=O)CN1C(=O)C2(OCC(C)(C)CO2)c2ccccc21	?	13%	.	-4%	.	.	2%	0%
CCN(c1ccccc1)S(=O)(=O)c1cc(C(=O)Nc2ccc(F)c(F)c2)ccc1F	?	14µM*	5%	13%	-7.3%	14%	-11%	11µM*
Cc1ccc(C(C)NC(=O)Cc2cccs2)cc1C (stereo unspecified)	.	.	.	4%	.	-1%	-2%	-19%
CCOC(=O)CSc1ncnc2c1sc1nc(N3CCOCC3)c3c(c12)CCCC3	11%	10%	-6%	4%	-4.8%	5%	7%	-20%
COc1cc(/C=C2\C(=O)ON=C2c2ccccc2)cc(Br)c1O	-2%[46.1 µM]	0%[46.1 µM]	.	-23%	.	6%	-2%	10µM*
Cc1ccc(C)c(NC(=O)COC(=O)CNC(=O)c2ccccc2Cl)c1	-7%[46.1 µM]	-2%	.	-27%	.	-42%	-1%	2%
SMILES	Marburg entry inh	LASV entry inh	Cruzain inh noDet	RE007 growth inh	Cruzain inh Det	NS1 function inh	SARS PLpro yeast	2A StopGo
Cn1nnnc1SCCNCc1ccccc1OCc1ccc(Cl)cc1	?	?	0%	-18%	0.9%	14%	-18%	?
COCCCNC(=O)/C=C/c1ccc(Cl)cc1	2%	6%	4%	10%	4.2%	-68%	1%	.
COC(=O)c1ccccc1NC(=O)CSc1n[nH]c(-c2ccncc2)n1	?	9%	.	2%	.	-3%	2%	?
CCOCCCNC(=O)Cc1ccc(OC)c(OC)c1	11%	16%	0%	48%	-4.8%	12%	-5%	-6%
COc1ccc(C(=O)NCCS(=O)(=O)NCc2ccccc2)cc1	-19%	-1%	.	4%	.	.	1%	25%
CC1(C)Cc2ccccc2-c2nnc(-c3ccc(O)cc3)n21	?	-26%	-5%	-5%	-4.5%	-12%	-1%	-17%
COC(=O)c1ccc(COc2ccc(-c3nn[nH]n3)cc2)cc1	15%	-19%	-2%	-9%	1.0%	-12%	-4%	13%
O=C(CCN1CCN(c2ccccc2)CC1)N/N=C/c1ccccc1O	?	.	.	-6%	.	.	?	15%
COc1ccc(CCNC(=O)c2c(C)nn(-c3ccccc3)c2Cl)cc1	-21%	?	.	-19%	.	-15%	-14%	-13%
C[C@]12CCC(=O)C[C@@H]1CC[C@@H]1[C@@H]2CC[C@]2(C)[C@@H](C(=O)COC(=O)CCC(=O)O)CC[C@@H]12	0%&0%[46.1 µM]	4%[46.1 µM]	.	2%&6%	.	6%&6%	-2%&1%	-15%&-10%
Oc1ccc(Cl)cc1C=Nc1ccc(Br)cc1	-16%[46.1 µM]	-16%[46.1 µM]	.	-9%	.	.	5%	-9%
O=C(NCC(=O)N1CCN(c2ccccc2)CC1)c1ccco1	.	.	.	1%	.	6%	1%	-1%
O=C(CCCN1C(=O)C(c2ccccc2)Oc2cccnc21)Nc1ccccc1Cl (stereo unspecified)	-2%[46.1 µM]	-14%[46.1 µM]	.	19%	.	-3%	8%	-19%
Cc1nn(C(=O)c2ccoc2C)c(N)c1-c1ccccc1	.	.	-1%	?	-12%	-101%	-31%	-1%
CC(=O)Nc1ccc([N+](=O)[O-])cn1	-2%	19%	-7%	2%	-1.2%	3%	-2%	-1%

Screens from PubChem.
